Source: PubChem
HIV Env fusion: blocks HIV Env-driven cell-cell fusion; HeLa-JRFL Env/CEM21 cell fusion, luciferase; inhibition, % at 12.3 µM; 360,000 compounds, 1.1% hits; AID 651610;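 active = mean replicate inhibition score of at least 50 and every replicate individually at or above 50; inconclusive = only one of the two criteria met; inactive = mean below 50 and not all replicates reaching 50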;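 note: 0% = plate neutral controls and 100% = maraviroc near 300 nM; one replicate is shown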
PABP FP inh: PABP-poly(A) binding inhibition; inhibition, % at 35 µM; 290,000 compounds, 1% hits; PABP-poly(A) RNA binding, fluorescence polarization; AID 2014;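 active = 50% or more with normal probe brightness, or confirmed in later tests; inconclusive = above 50% with abnormal brightness, or retests that disagree; inactive = below 50% or failed in later tests; about a fifth of its hits are not listed in these tables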;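 note: calls also rest on retests at 20 µM and on dose response follow-up; controls were probe without protein and protein plus probe with vehicle; some compounds called inactive have numbers as strong as hits; many hits fall short of the cut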
Target sequence (P11940 whole entry, looked up): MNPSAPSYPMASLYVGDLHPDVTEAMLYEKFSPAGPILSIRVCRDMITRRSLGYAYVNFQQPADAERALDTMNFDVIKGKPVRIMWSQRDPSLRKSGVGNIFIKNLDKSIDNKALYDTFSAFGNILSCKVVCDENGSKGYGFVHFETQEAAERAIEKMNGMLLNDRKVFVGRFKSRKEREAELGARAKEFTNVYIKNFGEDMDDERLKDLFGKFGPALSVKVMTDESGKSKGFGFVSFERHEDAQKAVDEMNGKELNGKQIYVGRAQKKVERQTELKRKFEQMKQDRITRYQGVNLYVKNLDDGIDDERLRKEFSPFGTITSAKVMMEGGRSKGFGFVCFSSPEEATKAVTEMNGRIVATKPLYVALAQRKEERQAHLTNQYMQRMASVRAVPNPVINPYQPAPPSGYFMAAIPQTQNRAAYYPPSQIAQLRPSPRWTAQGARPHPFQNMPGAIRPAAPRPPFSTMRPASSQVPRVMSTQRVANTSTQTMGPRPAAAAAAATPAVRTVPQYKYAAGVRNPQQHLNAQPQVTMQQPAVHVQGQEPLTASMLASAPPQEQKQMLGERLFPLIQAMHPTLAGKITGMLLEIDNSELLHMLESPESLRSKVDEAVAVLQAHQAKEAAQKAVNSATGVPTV
CSC inhib: cancer stem cell inhibition | cancer stem cell-like cells viability, luminescence | inhibition, % at 7.5 µM | 300,000 compounds, 1.1% hits | AID 2717;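 active = mean at 75% or more and at least half the replicates too; inconclusive = mean and replicates disagree; tested in HMLE shEcad cells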;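 note: 0% = median of negative and 100% = median of positive control wells; the first replicate is given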
Rce1 inh: yeast Ras-converting enzyme inhibition. Q03530. yeast membranes, quenched prenylated peptide cleavage fluorescence. calls only. 290,000 compounds, 0.27% hits. AID 2563;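 active = fall in fluorescence gain of 50% or more versus controls, with final raw signal at or below 3038400; inconclusive = same 50% fall but final raw signal above 3038400; inactive = fall in fluorescence gain under 50%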;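 note: plate controls were neutral control wells for no effect and wells lacking membranes for full effect; tested at 10 µM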
Target sequence (Q03530 whole entry, looked up): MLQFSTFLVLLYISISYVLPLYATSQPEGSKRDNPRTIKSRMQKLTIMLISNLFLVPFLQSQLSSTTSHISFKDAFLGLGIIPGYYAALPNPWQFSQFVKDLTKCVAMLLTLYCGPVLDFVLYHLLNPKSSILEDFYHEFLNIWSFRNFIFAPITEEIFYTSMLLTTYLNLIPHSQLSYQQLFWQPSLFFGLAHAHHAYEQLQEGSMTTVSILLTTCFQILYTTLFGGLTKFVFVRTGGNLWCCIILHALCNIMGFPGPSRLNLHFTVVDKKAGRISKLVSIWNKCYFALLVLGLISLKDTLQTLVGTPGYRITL
MT1-MMP act inh: inhibitors of human MT1-MMP activation. AID 651647. HT1080 RFP-PRO-GFP cells, GFP/RFP ratio fluorescence, overnight; percent of plate control window, DMSO zero. 360,000 compounds, 0.061% hits. P50281. GFP/RFP ratio change, % at 20 µM;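 active = GFP/RFP ratio change of at least 30% with cell ATP level not reduced by more than half and red fluorescence within 50% of control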; note: strong numbers were not always called active
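Assay system – RFP-PRO-GFP reporter HT1080 cells · Compound dosing – single dose of 20 µM compound, 1% DMSO final · Incubation – overnight compound exposure at 37 °C · Measure – GFP/RFP fluorescence ratio · Benchmarks – DMSO wells and RFP-L50D-GFP cells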
Yeast UUG start: alters start codon recognition fidelity in yeast | AID 602363 | S. cerevisiae UUG-firefly luciferase reporter, luminescence/redox ratio | 350,000 compounds, 0.13% hits | activity score, % at 18.7 µM;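 active = replicate mean at a twofold rise or more, about +100% in these data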;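 note: firefly luciferase made from a UUG start codon reports start codon fidelity; reporter light over untreated wells divided by growth signal over untreated wells; some hits fall short of that in this replicate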
eIF4H inh: inhibitors of RNA binding by human eIF4H. eIF4H fluorescence polarization binding assay. inhibition, % at 35 µM. 290,000 compounds, 0.94% hits. AID 2012;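 active = 50% or more with normal probe brightness, or confirmed in later tests; inconclusive = above 50% with abnormal brightness, or retests that disagree; inactive = below 50% or failed in later tests; about a fifth of its hits are not listed in these tables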;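 note: calls also rest on retests at 20 µM and on dose response follow-up; 0% = protein and probe with vehicle and 100% = probe without protein; strong numbers were not always called active; many hits fall short of the cut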
MT1-MMP act inh RFP: second read-out of MT1-MMP act inh, no call of its own (marks repeat the call); RFP signal change, %; measured here: RFP expression control read;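 0 = vehicle wells; hits needed this value within 50% of zero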
* hit, by the source's call; i = inactive; ? = inconclusive; nt = no result given. An excerpt; rates above refer to the full screens.

SMILES	HIV Env fusion	PABP FP inh	CSC inhib	Rce1 inh	MT1-MMP act inh	MT1-MMP act inh RFP	Yeast UUG start	eIF4H inh
O=C(Cc1ccccc1)Nc1ccc2oc(-c3ccncc3)nc2c1	nt	15	31	i	4	0	-39	-5
Cn1c(=O)[nH]c(=O)c2c1nc1n2CCCN1Cc1ccccc1	12	-3	-17	i	2	2	-18	-11
O=C(COc1ccc(S(=O)(=O)Nc2ccccc2)cc1)NCc1ccccn1	-5	-8	-5	i	-3	0	-10	-4
CC(C)c1ccc(NC(=S)NN2C(C)CCCC2C)cc1 (configuration not stated)	15	-1	0	i	3	-2	nt	-7
CC(=O)c1cccc(NC(=O)NC(C)c2ccncc2)c1 (configuration not stated)	-22	8	-4	i	0	-5	-19	-4
CCOC(=O)CNC(=O)CSc1nc(N(C)C)nc(N2CCOCC2)n1	nt	11	-3	i	nt	nt	-10	4
CN1C(=O)C(N=Nc2ccccc2C(=O)O)N(C)C1=S (configuration not stated)	-11	-13	3	i	-82	-2	nt	5
O=C(Cn1nnc2ccccc2c1=O)Nc1cc(C(F)(F)F)ccc1N1CCOCC1	nt	-2	-10	i	-4	-1	-2	-9
O=C(Nc1ccc(Cl)cc1)N1CCC(c2ccccc2)C1 (configuration not stated)	-102	5	4	i	3	0	nt	-3
Clc1ccccc1CSc1cnnc2ccccc12	-12	nt	nt	nt	-1	0	-14	nt
O=C(NCc1cc(F)ccc1F)C1CCC(=O)N(C2CCCCCC2)C1 (configuration not stated)	-27	16	7	i	6	-7	-7	-11
CN(CC1CCCN(CCc2ccc(Cl)cc2)C1)C(=O)c1ccc2nc[nH]c2c1 (configuration not stated)	nt	-6	19	nt	-2	0	-10	-5
CC(/C=N/NC(=O)Cc1cccs1)=C\c1ccco1	-62	6	-5	i	-5	-1	-11	-7
Cn1c(N)nc2ccccc2c1=O	-3	-9	-3	i	1	2	-17	6
O=C(NCCCN1CCC(Cc2ccccc2)CC1)C1CC(=O)N(C2CCCCCC2)C1 (configuration not stated)	55*	6	7	i	-1	0	10	11
COc1cc(NC(=O)COC(=O)CNC(=O)c2ccc(Cl)cc2)c(C)cc1[N+](=O)[O-]	17	-2	-11	i	nt	nt	nt	-2
CCN(C(=O)c1cccnc1SC)C12CC3CC(CC(C3)C1)C2	?	2	3	i	0	1	-7	-4
CCOC(=O)C1(Cc2cccc(Cl)c2)CCCN(C(=O)CCN2CCCC2=O)C1 (configuration not stated)	-24	-7	-12	nt	0	1	14	-2
N#CC1=C(N)Nc2ncnn2C1c1ccccc1 (configuration not stated)	nt	-5	2	i	nt	nt	nt	-1
O=C(O)c1cccc(NC(=S)NC(=O)c2ccc3ccccc3c2)c1	nt	2	-8	i	-1	-2	-59	-2
CCNc1nc(NCC)n2c(SCC(=O)Nc3ccccc3Cl)nnc2n1	nt	nt	11	i	0	1	nt	nt
CCN(CC)C(=O)Nc1ccc(Br)cc1	-8	-2	-12	i	-2	-3	nt	9
Cn1c(CC(=O)Nc2ccc(Cl)c(Cl)c2)nnc1SCC(=O)Nc1nccs1	-50	12	3	i	-1	7	-19	-11
NC(=O)COc1ccc(/C=N\NC(=O)c2ccc(-c3ccccc3)cc2)cc1	-6	-14	8	i	-1	2	-22	-12
CN(c1ccc(C(=O)NC2CC2)cc1)S(=O)(=O)c1ccccc1	-48	15	-1	i	0	0	-30	5

Arranged by the number under MT1-MMP act inh RFP (falling): 5 of the compounds above.
SMILES,MT1-MMP act inh RFP
Cn1c(CC(=O)Nc2ccc(Cl)c(Cl)c2)nnc1SCC(=O)Nc1nccs1,7
Cn1c(N)nc2ccccc2c1=O,2
CN(CC1CCCN(CCc2ccc(Cl)cc2)C1)C(=O)c1ccc2nc[nH]c2c1 (configuration not stated),0
CN1C(=O)C(N=Nc2ccccc2C(=O)O)N(C)C1=S (configuration not stated),-2
CC(=O)c1cccc(NC(=O)NC(C)c2ccncc2)c1 (configuration not stated),-5

Other entries
SMILES	HIV Env fusion	PABP FP inh	CSC inhib	Rce1 inh	MT1-MMP act inh	MT1-MMP act inh RFP	Yeast UUG start	eIF4H inh
COc1ccc(NC(=O)c2cccc(S(=O)(=O)NCc3ccco3)c2)c(OC)c1	4	nt	4	i	1	-1	15	nt
COc1ccc(/C=C2\CCc3ccccc3C2=O)cc1OC	39	16	nt	i	-1	-9	-15	32
COc1ccc2nc3c(cc2c1)c(NC(=O)c1cccs1)nn3CC(C)C	nt	9	8	i	-9	-14	-13	4
COc1cc(C)ccc1OCCCCOc1ccccc1C(C)=O	34	4	3	i	-1	-13	nt	-6
CCc1nc2ccc(C(=O)NCc3ccccc3OC)cn2c1N(CC)CCN(C)C	0	nt	nt	nt	-6	-1	-11	nt
CCN(CCNC(=O)CCCn1nc(C)n2c(cc3sccc32)c1=O)c1ccccc1	-9	3	-6	i	0	2	-12	2
Cc1nn(C)c(C)c1/C=N/O	nt	-6	nt	i	3	7	0	5
CC(C)=CCCC(C)CN1CCC(n2nccc2NC(=O)c2cccnc2)CC1 (configuration not stated)	-3	2	-3	i	3	5	-7	-3
CCc1ccc2nc(N3C(=O)c4oc5ccccc5c(=O)c4C3c3ccc(OC)c(OC)c3)sc2c1 (configuration not stated)	nt	-2	-16	i	nt	nt	nt	8
Oc1ccc(C[C@H]2CNCCN2CCCCC2CCCCC2)cc1	6	nt	3	i	2	5	-3	nt
COc1ccc(C(=O)NCc2ccc3c(c2)OCO3)cc1S(=O)(=O)N(C)Cc1ccccc1	9	0	30	i	3	-1	-19	-8
COc1ccc(CNC(=O)CN(C(=O)CCC(=O)Nc2nccs2)c2ccc3c(c2)OCO3)cc1	-1	11	-10	i	1	1	-15	7
COCCCn1c(SCC(=O)Nc2ccccc2)nnc1-c1ccncc1	11	-7	0	i	-7	0	3	-7
Cc1ccc(C(=O)NC(=S)Nc2cc(-c3nc4ccccc4s3)ccc2C)cc1	nt	-3	nt	i	-2	2	1	-5
Cc1cccc(Nc2c3c(nc4ncnn24)CCC3)c1	0	2	-3	i	2	5	nt	-1
Cn1cccc1Cc1nnc(SCC(=O)Nc2ccccc2)n1-c1ccc(F)cc1	-7	-23	-12	i	-1	6	-22	-14
Cc1cc(/C=C2\SC(=O)N(C)C2=O)c(C)n1-c1cccc(C(=O)O)c1	2	67*	-5	i	-4	2	-6	90*
Cc1ccccc1CNC(=O)c1ccccc1C(=O)O	nt	-4	5	i	3	6	-4	2
CCC(O)(CC)C(=O)NN(C(=O)Nc1csc2c1CCCC2)c1ccccc1	62*	-7	-14	i	-2	4	-24	15
O/N=C/c1cc2ccccc2n1Cc1ccccc1F	-5	-7	2	i	0	2	-7	-4
N/C(=N\OC(=O)CC1CCCCC1)c1ccncc1	-23	-3	1	i	0	2	nt	4
CC(C)c1ccc(/C=C/C(=O)Nc2nn[nH]n2)cc1	nt	-27	-20	i	nt	nt	nt	-5
CCN1C(=O)[C@H]2[C@@H](c3ccc(OC)cc3)N[C@]3(CCCN(Cc4ccc(Br)cc4)C3=O)[C@H]2C1=O	-5	nt	nt	nt	4	3	-7	nt
COC(=O)C1C(=O)C2=C(CC1C)NC(C)=C(C(=O)OC1CCCC1)C2c1ccc(N(C)C)cc1 (configuration not stated)	-12	-6	-11	i	3	-1	0	-7
COc1ccccc1-c1cnn2c(NC3CCCC3)cc(C)nc12	-25	8	0	i	-4	-6	-17	5

Laid out differently: entries from further up
| canonical_smiles | HIV Env fusion | PABP FP inh | CSC inhib | Rce1 inh | MT1-MMP act inh | MT1-MMP act inh RFP | Yeast UUG start | eIF4H inh |
| --- | --- | --- | --- | --- | --- | --- | --- | --- |
| COc1ccc(CNC(=O)CN(C(=O)CCC(=O)Nc2nccs2)c2ccc3c(c2)OCO3)cc1 | -1 | 11 | -10 | i | 1 | 1 | -15 | 7 |
| CCN(CCNC(=O)CCCn1nc(C)n2c(cc3sccc32)c1=O)c1ccccc1 | -9 | 3 | -6 | i | 0 | 2 | -12 | 2 |

Additional results follow:
SMILES	HIV Env fusion	PABP FP inh	CSC inhib	Rce1 inh	MT1-MMP act inh	MT1-MMP act inh RFP	Yeast UUG start	eIF4H inh
OC[C@@H]1CN(Cc2ccco2)C[C@H](n2cnc3c(NC4CCC4)ncnc32)O1	8	nt	nt	nt	0	5	-11	nt
N#Cc1ccc(C(=O)Nc2nc(SCc3ccc(Cl)cc3)n[nH]2)cc1	-15	6	25	i	-1	-2	nt	4
CSC[C@H]1CN(Cc2ccccc2)C(=O)[C@@H]1CC(=O)Nc1ccccc1	13	nt	nt	nt	3	5	-10	nt
COC(=O)Cn1ncc2c3ccccc3n(Cc3ccccc3)c2c1=O	-26	-2	-10	i	0	0	nt	4
CN(C)CCNc1nc(-c2ccccc2)c2c(c1C#N)CC(C)(C)OC2	nt	-18	-21	i	1	-5	1	1
Cc1cccc(OCC(=O)N2CCN(C(=O)CCC3CCCC3)CC2)c1	nt	1	-5	i	1	2	-6	-5
CC(=O)NS(=O)(=O)c1cccnc1Nc1ccc(Cl)c(Cl)c1	nt	20	24	i	0	0	-2	-1
Cc1ccc(-c2nn(C)c(=O)c3ccccc23)cc1S(=O)(=O)NCCO	-87	6	-2	i	5	1	-16	4
Cc1cccc(NC(=O)c2ccc(S(=O)(=O)N3CCCCC3C)cc2)n1 (configuration not stated)	-8	5	-1	i	-5	-9	-1	-4
CCc1ccccc1NC(=O)CSc1nc2cc(C(=O)NCC3CCCO3)ccc2c(=O)n1CC1CCCO1 (configuration not stated)	9	nt	nt	nt	2	3	-18	nt
C#CCOCCOCCOCCNc1nc(N2CCN(C(=O)[C@H](CCCCN)n3cc(CN)nn3)CC2)nc(N2CCN(C(=O)[C@H](CCC(=O)O)n3cc(CN)nn3)CC2)n1	19	nt	-1	nt	4	7	10	nt
Cc1noc(C)c1S(=O)(=O)Nc1ccc(C(=O)NCc2ccccc2)cc1	-13	6	-17	i	1	2	-1	-1
COC(=O)C1CCN(C(=O)c2cc(-c3ccc(Cl)s3)nc3ccccc23)CC1	11	nt	nt	nt	-1	-16	12	nt
Cc1ccc(SCC(=O)OC(C)C(=O)Nc2ccc(S(N)(=O)=O)cc2)cc1C (configuration not stated)	2	nt	-11	i	5	2	-7	nt

Ordered by number of heavy atoms (smallest number first): part of the list above
SMILES	HIV Env fusion	PABP FP inh	CSC inhib	Rce1 inh	MT1-MMP act inh	MT1-MMP act inh RFP	Yeast UUG start	eIF4H inh
COc1ccc(/C=C2\CCc3ccccc3C2=O)cc1OC	39	16	nt	i	-1	-9	-15	32
CCNc1nc(NCC)n2c(SCC(=O)Nc3ccccc3Cl)nnc2n1	nt	nt	11	i	0	1	nt	nt
CCOC(=O)C1(Cc2cccc(Cl)c2)CCCN(C(=O)CCN2CCCC2=O)C1 (configuration not stated)	-24	-7	-12	nt	0	1	14	-2
COc1ccc(CNC(=O)CN(C(=O)CCC(=O)Nc2nccs2)c2ccc3c(c2)OCO3)cc1	-1	11	-10	i	1	1	-15	7
